CtBP-E1A blk = CtBP/E1A binding inhibition | AlphaScreen GST-E1A/His-CtBP binding, 1536-well; active compounds read low; control for the full effect not named in the record | activity change, % (test concentration not listed) | actives 0.49% (n = 340,000); in the data active means activity change below about -65%; inconclusive means about -30% to -65%; inactive means above about -30%; also: % is scaled to controls: 0 for no effect and ±100 for the full control effect
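Protein mix (5X: 125 nM each GST-E1A, His-CtBP) was incubated with pinned compound 2 h at 37 deg C in dark, in 50 mM Tris pH 8.0 buffer with 300 mM NaCl. Glutathione donor and nickel acceptor beads followed; AlphaScreen signal read after 1 h.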
Six1-Eya2 inh = blocks human Six1 binding to Eya2. Q15475+O00167. AlphaScreen GST-Six1/His-Eya2 binding, biochemical; active compounds read low; control for the full effect not named in the record. activity change, % (test concentration not listed). actives 0.56% (n = 360,000). AID 651725; in the data active = activity change below about -65%; inconclusive = about -30% to -65%; inactive = above about -30%; also: % is scaled to controls: 0 for no effect and ±100 for the full control effect
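AlphaScreen with GST-Six1 and His-Eya2 (5X mix: 250 nM and 500 nM), glutathione donor and nickel acceptor beads; buffer 50 mM Tris pH 8.0, 300 mM NaCl, 1 mM TCEP; 1 h at 37 C in the dark.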
TRPV1 PAM = human TRPV1 potentiation. Q8NER1. TRPV1-expressing cells, Fluo-8 calcium influx, capsaicin EC20 potentiation; host cell line not named in the record; control for the full effect not named in the record. potentiation, % at 8.33 µM. actives 0.02% (n = 320,000). AID 540277; active means potentiation above 80%; inconclusive means 30% to 80%; inactive means below 30%; also: 0% is about no effect
Target sequence (Q8NER1 whole entry, looked up): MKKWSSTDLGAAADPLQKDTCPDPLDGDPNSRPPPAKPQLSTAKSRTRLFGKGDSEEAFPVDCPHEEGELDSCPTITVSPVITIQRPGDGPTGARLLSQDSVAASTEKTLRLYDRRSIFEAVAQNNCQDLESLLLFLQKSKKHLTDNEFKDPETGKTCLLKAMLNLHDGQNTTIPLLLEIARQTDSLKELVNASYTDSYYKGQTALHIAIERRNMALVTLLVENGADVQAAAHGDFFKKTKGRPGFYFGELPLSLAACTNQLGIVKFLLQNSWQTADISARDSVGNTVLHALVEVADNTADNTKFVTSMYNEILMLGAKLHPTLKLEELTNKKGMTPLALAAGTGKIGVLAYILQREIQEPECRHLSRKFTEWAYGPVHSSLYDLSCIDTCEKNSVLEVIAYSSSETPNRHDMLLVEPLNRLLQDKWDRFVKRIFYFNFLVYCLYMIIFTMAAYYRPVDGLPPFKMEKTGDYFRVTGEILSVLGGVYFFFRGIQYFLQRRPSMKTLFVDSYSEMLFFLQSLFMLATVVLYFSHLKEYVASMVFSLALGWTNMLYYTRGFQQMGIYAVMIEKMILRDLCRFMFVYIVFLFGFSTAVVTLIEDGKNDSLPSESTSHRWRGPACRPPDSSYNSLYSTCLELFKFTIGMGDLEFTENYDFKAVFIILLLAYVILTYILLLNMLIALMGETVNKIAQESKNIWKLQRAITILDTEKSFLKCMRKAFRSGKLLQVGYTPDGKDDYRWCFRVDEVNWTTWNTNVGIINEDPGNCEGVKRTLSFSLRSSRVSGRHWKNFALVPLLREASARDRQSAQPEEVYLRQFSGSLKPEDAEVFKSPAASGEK
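Cells expressing TRPV1 were dye-loaded with Fluo-8 and read kinetically: 10 s baseline, 3 min after compound (agonist portion), then 2 min after EC20 capsaicin (allosteric enhancer portion). Calcium-bound dye fluorescence at 480/520 nm.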
Sfp inh = Sfp phosphopantetheinyl transferase inhibition | Q9F4F7 | Potency, µM, inactives show max response, negative = inhibition, most hits filed as inhibitors | Biochemical Sfp PPTase activity, qHTS | actives 3.5% (n = 310,000); active = well fitted inhibition curve with a large enough effect; inconclusive = small, poorly fitted or top-dose-only effect, or another doubt; inactive = no such curve, though single readings can be large or run the other way;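 also: the enzyme is Sfp with the accession as filed and its product quenches rhodamine fluorescence; potency is read from the fitted curve at half-maximal effect; 0% = enzyme reaction without inhibitor and -100% = no enzyme wells; top concentration of the series not given in the record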
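Buffer: 50 mM Hepes-Na pH 7.6, 10 mM MgCl2, 0.01% Nonidet P-40, 0.01% BSA. Enzyme 15 nM, pre-exposed to compound 15 min; substrates then added and fluorescence change tracked over 30 min.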
D2 ag = agonists of human D2 dopamine receptor (beta-arrestin); P14416; DiscoveRx PathHunter D2 beta-arrestin, luminescence, 90 min; 100% = 57 uM dopamine signal; activation, % (test concentration not listed); actives 0.084% (n = 360,000); in the data active = activation above about 40%; inconclusive = about 15% to 40%; inactive = below about 15%; also: compound concentration not given in the record; the text of the record calls up to 30% inactive
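DiscoveRx PathHunter D2 beta-arrestin cells (2,100/well) attached overnight, then compound-stimulated 90 min at 37 C in HBSS/10 mM HEPES/0.1% Tween-20 buffer; beta-galactosidase complementation read by luminescence after 1 h at ambient temperature. Dopamine 57 uM final (EC100) as control.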
D2 PAM = positive allosteric modulators of human D2 dopamine receptor | potentiation, % (no concentration beside the values) | P14416 | actives 0.23% (n = 360,000) | DiscoveRx D2 beta-arrestin cells, luminescence, 90 min; 100% = 57 uM dopamine signal; active = potentiation of 50% or more; inconclusive = 30% to 50%; inactive = 30% or less;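 also: compound concentration not given in the record; tested on top of an EC20 dose of dopamine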
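D2 cells co-treated with compound plus 50 nM dopamine (EC20) for 90 min at 37 deg C to detect potentiation. Beta-arrestin recruitment was read as enzyme-fragment luminescence after 1 h at ambient temperature. Full response was set by 57 uM dopamine.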
PINK1 modulator = PINK1 expression modulation; PINK1 immunofluorescence, high-content cytometry, 24 h; actives 0.2% (n = 410,000); Potency, µM (series often up to 76.6 µM), for the others: at the highest dose activation (PINK1 increase), usual class: activators; active = well fitted activation curve with a large enough effect; inconclusive = small, poorly fitted or top-dose-only effect; inactive = flat fitted curve, though single readings scatter; cell line not stated here;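 also: potency is read from the fitted curve at half-maximal effect; % of control where 0% means no effect; nearly all actives have a fitted effect of over 65% in size; a mitochondrial uncoupler was the plate control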
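Stable cell line treated 24 h with compounds at 5 concentrations (CCCP controls), then fixed and immunostained for PINK1 plus nuclear and cell stains; PINK1 immunofluorescence quantified by laser-scanning microplate cytometry.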
Numbers without * were called inactive; ? = inconclusive; nt = no result given; & = joins results of further samples; [ ] = dose if it differs, or a comment.

SMILES	CtBP-E1A blk	Six1-Eya2 inh	TRPV1 PAM	Sfp inh	D2 ag	D2 PAM	PINK1 modulator
CCCn1nnnc1-c1ccc(Cl)cc1	10	6	-4	5%	-1.1	-4	6.0%[38.3 µM]
Nc1ncnc2c1ncn2[C@@H]1O[C@H](C(=O)N2CCN(Cc3ccccn3)CC2)[C@@H](O)[C@H]1O	3	0	nt	nt	-7.1	-3	4.0%
O=C1NC(=O)C(c2ccc(F)cc2)N1 (stereo unspecified)	6	5	17	15%	2.2	0	-0.2%
O=C1NC(=O)C(=O)N1	7	-1	-5	nt	-5.0	2	0.0%
O=C(NCCC1CCCC1)c1cccs1	nt	4	-11	8%	2.8	-6	1.1%
Cc1ccc(CNC(=O)CC2Sc3ccccc3NC2=O)cc1 (stereo unspecified)	12	-2	-8	-1%	-4.6	1	?
N#CCSCC(=O)Nc1ccc(Br)cc1	7	3	-4	12%	-3.7	-8	2.0%[38.3 µM]
CC1CCc2cccc3c(O)cc(=O)n1c23 (stereo unspecified)	nt	4	nt	nt	-3.0	-8	3.2%
COc1ccc(CCN2CC(C(=O)OCC(=O)c3c(N)n(CC(C)C)c(=O)n(C)c3=O)CC2=O)cc1OC (stereo unspecified)	-5	2	nt	nt	0.4	1	-0.2%
CC(=O)NNC(=S)NC(=O)c1cccc([N+](=O)[O-])c1	-16	-3	0	11µM*	-2.7	0	1.9%
CCNC(=O)C(=O)NCc1ccncc1	9	0	2	10%	3.0	-4	0.6%
Cc1ccc(NC(=O)CCc2nnc3ccc(N4CCN(C)CC4)nn23)cc1F	nt	1	-7	15%	-7.2	-7	-1.6%
CC(=O)/C(N=Nc1ccc(OC(F)(F)F)cc1)=C(\C)O	8	0	-27	11%	-3.4	-9	2.2%
CCCCNC(=O)c1ccc(CNc2c(N3CCC(C(=O)OCC)CC3)c(=O)c2=O)cc1	9&-8	-5&1	-3	11%	1.0&0.0	-2&6	-5.9%
Cc1ccc(OCC(=O)Nc2ccc(O)c(C(=O)O)c2)cc1C	1	4	2	-16%	1.8	-12	nt
O=C(COC(=O)c1cc([N+](=O)[O-])ccc1NCCO)Nc1ccc2c(c1)OCO2	-8	16	2	5%	-4.1	-11	?
COc1ccc(N/C=C(\C(C)=O)c2ccc(OC)c(OC)c2)cc1OC	nt	-4	-1	5%	-0.1	2	-0.9%
Cc1cc(C)c(NC(=O)CSc2nc3ncc(Br)cc3[nH]2)c(C)c1	-2	6	-7	-4%	-4.7	-4	4.2%
COc1ccc(C(C)C)cc1S(=O)(=O)Nc1ccncc1	-1	-1	9	21%	3.6	-15	1.8%
O=C(CN(C(=O)CSc1nc2ccccc2o1)c1ccccc1)NC1CCCCC1	8	1	nt	-3%	-4.3	-6	nt
CCC(=O)N1CCN(c2cc(N3CCCC3)c(F)cc2[N+](=O)[O-])CC1	nt	-18	nt	nt	-2.7	-13	-1.5%
CCN(CC)S(=O)(=O)c1ccc(O)c(C(=O)OCC(=O)N2CCCc3ccccc32)c1	1	0	nt	nt	1.0	-6	0.0%
Nc1ccc2cccc(O)c2c1	-28	-27	nt	nt	14	4	-0.1%
Cc1cccc(OCC(O)CN2CCN(C3CCCCC3)CC2)c1 (stereo unspecified)	8	2	-3	2%	-3.0	-7	2.9%
CCOc1ccccc1NC(=O)C1CCN(C(=O)c2cccs2)CC1	0	8	-1	15%	-2.4	-5	-0.3%
CSc1ncccc1C(=O)OCC(=O)N1CC(=O)Nc2ccccc21	-20	-15	6	nt	-0.8	-3	1.3%
CC(C)N(C(=O)CSc1nc(Cc2ccccc2)nc2ccccc12)C(C)C	-6	6	11	-8%	-1.9	-1	2.9%
COc1ccc(Cl)cc1NC(=O)CN(C)C(=O)CNC(=O)C12CC3CC(CC(C3)C1)C2	4	7	1	3%	-2.7	-1	-2.0%
COc1ccc(C2/C(=C(/O)c3ccc4c(c3)CC(C)O4)C(=O)C(=O)N2CCCN2CCOCC2)cc1OC (stereo unspecified)	10	0	-6	2%	-2.6	3	0.0%
CCOc1cccc(CN2CCCC(N3CCc4ccccc4C3)C2)c1O (stereo unspecified)	-3	-10	-15	4%	-5.8	-24	0.9%
CCN1CCSc2ccc(C(=O)NCc3cccc(Br)c3)cc21	-3	-11	10	7%	0.2	-12	-0.2%&0.9%
CC(C)c1ccc(NC(=O)CSc2nc(=O)[nH]c3c2CCCC3)cc1	-15	-9	11	nt	1.4	-16	-2.2%
O=S(=O)(O)c1nc2ccccc2n1Cc1ccc(Cl)cc1Cl	1	-5	5	16%	0.8	3	-1.0%
CCOC(=O)c1c(C)nc(-c2ccccc2)nc1NC(C)=O	-4	8	?	17%	-0.6	-6	-2.7%
Cc1cc(C)nc(Oc2ccc([N+](=O)[O-])cc2)n1	-12	10	-2	-1%	-1.5	-3	-0.1%
Cc1ccc(C)c(CNS(=O)(=O)c2ccc3c(c2)C(C)(C)C(=O)N3C)c1	nt	6	1	1%	6.3	1	0.2%&0.9%
COC(=O)c1cc(NC(=O)CC2C(=O)NCCN2C(=O)c2ccccc2)cc(C(=O)OC)c1 (stereo unspecified)	-2	3	-3	15%	-0.9	-4	-1.3%
COc1cccc(NC(=O)C2CCCN2C(=O)Nc2ccccc2)c1 (stereo unspecified)	0	-20	2	21%	-4.6	-14	1.1%
Cc1ccccc1OCC(=O)Nc1ccc2c(c1)C(=O)N(CCC(=O)O)C2=O	0	18	-2	16%	-5.7	-8	-0.1%
CC(Oc1cccc2cccnc12)C(=O)N/N=C/c1ccc2c(c1)OCO2 (stereo unspecified)	-7	-7	nt	nt	-0.1	-4	0.5%

The list goes on; the last 2 above are carried over.
SMILES	CtBP-E1A blk	Six1-Eya2 inh	TRPV1 PAM	Sfp inh	D2 ag	D2 PAM	PINK1 modulator
Cc1ccccc1OCC(=O)Nc1ccc2c(c1)C(=O)N(CCC(=O)O)C2=O	0	18	-2	16%	-5.7	-8	-0.1%
CC(Oc1cccc2cccnc12)C(=O)N/N=C/c1ccc2c(c1)OCO2 (stereo unspecified)	-7	-7	nt	nt	-0.1	-4	0.5%
CC1(C(=O)NS(=O)(=O)C2CC2)CCCN(C(=O)c2cccnc2Oc2ccccc2)C1 (stereo unspecified)	5	3	nt	nt	-4.6	-12	-0.3%
O=C1C(CN2CCCC2)CCCC1CN1CCCC1 (stereo unspecified)	4	0	nt	nt	-4.7	-23	1.0%
CC(CN1CCCCC1)OC(=O)c1ccc2c(c1)OCCO2 (stereo unspecified)	6	-7	-8	14%	-4.2	-16	0.9%
O=C(CN1CCN(S(=O)(=O)c2ccc(F)c(Cl)c2)CC1)N1CCc2ccccc2C1	-2	-2	nt	nt	0.0	-12	1.0%
CCCC(c1nnnn1Cc1ccc(F)cc1)N1CCN(CC)CC1 (stereo unspecified)	-5	3	-7	14%	-3.7	-8	-0.4%
COC(=O)CCSCC(=O)Nc1cc(C)on1	9	3	-3	5%	-3.8	-11	3.9%[38.3 µM]
c1csc(-c2ccc3ccccc3n2)c1	17	26	0	-1%	-2.8	8	2.3%
Cc1cccc(-n2nnnc2SCC(=O)c2cc(C)n(CC3CCCO3)c2C)c1 (stereo unspecified)	-19	-15	-8	?	-5.8	-19	-0.5%
O=C(N=C1SC2CS(=O)(=O)CC2N1c1c(Cl)cccc1Cl)C1CC1 (stereo unspecified)	2	1	1	4%	-1.2	-4	0.1%
COc1ccc(S(=O)(=O)N(C)C[C@H]2Oc3ccc(NC(=O)C4CCCCC4)cc3C(=O)N([C@H](C)CO)C[C@@H]2C)cc1	0	1	nt	nt	2.2	-5	2.5%
CC(=O)O[C@@H]1[C@H]2[C@@H](C[C@@H](C)[C@@H]3CCC(=O)[C@@]13C)OC(=O)[C@@H]2C	2	4	-14	15%	-3.2	-3	0.6%
CN(CC(=O)Nc1ccc(Cl)cc1)C(=O)C1=COCCO1	2	-2	-2	nt	-1.8	-13	-0.9%
CC(=O)Nc1ccc(S(=O)(=O)NCc2cn3ccsc3n2)cc1	5	5	-43	0%	-2.2	-9	nt
CCOCCc1c(O)nc(SCC(=O)N2CCOCC2)[nH]c1=O	0	6	2	16%	3.1	-2	3.1%
Cc1ccc(NC(=O)COc2coc(CN3c4ccccc4CC3C)cc2=O)c(C)c1 (stereo unspecified)	4	-2	12	nt	2.7	3	4.3%
O=C(C(=Cc1ccccc1)CN1CCCCC1)c1ccccc1	12	2	nt	nt	-6.1	-23	-5.8%
O=C(COC(=O)CCc1c[nH]c2ccccc12)Nc1cc([N+](=O)[O-])ccc1Cl	0	-17	5	-2%	0.3	-12	0.5%
CCn1c(=O)c2ccccc2n(Cc2cccc(C)c2)c1=O	0	17	14	6%	4.8	-1	0.3%
O=C(Cn1nc(-c2ccc(F)cc2)ccc1=O)Nc1ccc2c(c1)OCCO2	2	-8	8	4%	-4.9	-10	0.8%
O=c1[nH]c(NCc2ccccc2)nc2c1CCC2	-1	3	?	-10%	0.0	-6	-1.0%
COc1cccc(OCC(O)CNC(=O)c2oc3ccc(C)cc3c2C)c1 (stereo unspecified)	-2	-1	-1	3%	2.1	-5	1.1%
O=C(C1Cc2ccccc2CN1S(=O)(=O)c1ccccc1[N+](=O)[O-])N1CCOCC1 (stereo unspecified)	4	-2	nt	nt	-1.4	-29	-0.7%
Cc1ccc(NCN2C(=O)c3ccccc3C2=O)c(C)c1	-3	1	-11	9%	-1.8	2	-1.8%
Nc1[nH]ncc1C(=O)Nc1cccc(C(F)(F)F)c1	3	1	3	6%	-0.2	-13	0.9%
Cc1ccc(S(=O)(=O)C(CCC(=O)N2CCOCC2)S(=O)(=O)c2ccc(C)cc2)cc1	-7	4	-6	16%	-0.2	-15	nt
O=C(NNC(=O)c1cc2cc3ccccc3nc2s1)c1cccc(C(F)(F)F)c1	5	-5	nt	19%	-4.1	0	0.5%
C=CCNc1nc(C(=O)OCC(=O)Nc2ccccc2C(F)(F)F)cs1	2	3	4	nt	-5.9	-3	2.0%
CCOC(=O)c1c(NC(=O)CSc2nnc(C)c(=O)[nH]2)sc(C)c1-c1ccc(C)cc1	-21	-25	-11	?	-0.2	4	2.3%
Nc1nc(-c2nonc2N)no1	-3	7	-9	15%	0.0	-4	-2.1%
